# Compound activity deposited in PubChem by National Center for Advancing Translational Sciences (NCATS).
# VDR inh – vitamin D3 receptor (human) inhibition | P11473 | VDR-SRC2-3 peptide fluorescence polarization, 2 h | Potency, µM, without a hit: max response, negative = inhibition, most hits filed as inhibitors | actives 0.93% (n = 400,000); active means well fitted inhibition curve with a large enough effect; inconclusive means small, poorly fitted or top-dose-only effect, or another doubt; inactive means no such curve, though single readings can be large or run the other way; further: series mostly up to about 120 µM
# Target sequence (P11473 whole entry, looked up): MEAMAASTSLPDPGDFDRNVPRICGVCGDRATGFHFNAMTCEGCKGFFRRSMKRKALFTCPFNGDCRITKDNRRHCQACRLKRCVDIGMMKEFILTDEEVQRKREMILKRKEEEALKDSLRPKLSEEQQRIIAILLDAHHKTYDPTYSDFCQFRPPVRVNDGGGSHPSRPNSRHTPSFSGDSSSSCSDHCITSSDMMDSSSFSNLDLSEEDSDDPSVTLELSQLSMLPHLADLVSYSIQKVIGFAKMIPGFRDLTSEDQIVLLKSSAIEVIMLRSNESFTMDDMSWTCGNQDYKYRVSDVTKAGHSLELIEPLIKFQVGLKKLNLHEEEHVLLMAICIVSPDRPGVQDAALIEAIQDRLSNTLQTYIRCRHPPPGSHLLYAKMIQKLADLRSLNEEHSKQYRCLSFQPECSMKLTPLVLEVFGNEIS
#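 After 23 nl compound addition and a short centrifugation, plates sat for 2 hours at ambient temperature; polarization of fluorescence then indicated loss of VDR binding to peptide SRC2-3.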
# Starred values were filed as active, the others as inactive; ? = inconclusive. On the % scale 0 is the no-effect control and ±100 the full control effect; potency means the concentration at half of the fitted maximal effect. A portion of the library. The share of hits here may be higher or lower than overall.
mol	VDR inh
Clc1ccccc1-c1nnc2n1-c1ccccc1SC2	-3%
Cc1ccc(/C=C/C(=O)OCC(=O)NC(=O)NCc2ccccc2)cc1	7%
COC(=O)[C@H]1CC=C[C@H]2CCN(Cc3ccc(Cl)c(Cl)c3)C(=O)[C@@H]12	-7%
CCOC(=O)c1sc(NC(=O)/C=C/c2ccc(C(C)C)cc2)c(C(=O)OCC)c1C	-21%
Cn1c(NC(=O)c2cc(Cl)ccc2Cl)cc(=O)n(C)c1=O	-4%
CCOC(=O)c1ccc(NC(=O)c2c(C)[nH]c(C(=O)OCC)c2C)cc1	-14%
CCCS(=O)c1nc(C)cc(C)c1S(C)(=O)=O (centres undefined)	-8%
CC1(C)CC(NC(=O)C2CCN(S(=O)(=O)c3cccc(C(F)(F)F)c3)CC2)CC(C)(C)N1	-19%
Clc1ccc(Cc2noc(-c3cccs3)n2)cc1	-13%
COc1ccccc1NC(=O)CN(c1ccc(C(C)C)cc1)S(=O)(=O)c1c(C)noc1C	-14%
CC(=O)Nc1nonc1NC(=O)c1ccc(F)cc1	-22%
Cc1noc(C)c1C(=O)N1CCC2(CCCN(C(=O)Nc3ccccc3)C2)CC1	10%
COCCN1Cc2cccc(C(=O)Nc3ccc(S(=O)(=O)N4CCCCC4)cc3)c2C1=O	-12%
CN(C)C(=O)C1C2NC(=S)N(c3ccccc3)C1(C)Oc1ccccc12 (centres undefined)	-13%
COc1ccc2c(c1)O[C@@H](c1cccc(C(F)(F)F)c1)[C@H](OC(=O)NCc1ccco1)C2=O	?
O=C(CCCCCN1C(=O)C2C3C=CC(C3)C2C1=O)Nc1nccs1 (centres undefined)	-21%
CCN1CCCC1Cn1cnc2c([nH]c3ccc(Cl)cc32)c1=O (centres undefined)	4%
O=C1OC[C@H]2CCCN2C(=O)[C@@H](CC(=O)N(CCO)Cc2ccccc2)C/C=C\CC[C@H]1Cc1ccc(F)cc1	11%
Cc1onc(-c2ccccc2)c1C(=O)N(CC(C)C)c1c(N)n(CC(C)C)c(=O)[nH]c1=O	1%
O=C(COC(=O)C1CC1)Nc1ccc(Cl)cn1	-6%
O=C(NCCCO)c1cc2ccccc2[nH]1	1%
CN(C)c1ccc(/C=C/c2nnnn2-c2ccccc2)cc1	4%
COc1ccc(N2CCN(C(=O)CCCC3=NS(=O)(=O)c4ccccc4N3)CC2)cc1	-1%
C=CCC[C@@H](Cc1ccc(F)cc1)C(=O)OC[C@@H](Cc1ccccc1)NC(=O)[C@@H](CC=C)CC(=O)N[C@@H](CO)Cc1ccccc1	-20%
CC12CCC(C(=O)N3CCCc4ccccc43)(CC1=O)C2(C)C (centres undefined)	0%
Cc1ccc(NC(=O)C(=O)NCCc2c[nH]c3ccccc23)c(C)c1	1%
COc1cc([N+](=O)[O-])ccc1NC(=S)Nn1cnnc1	?
O=C(CCNC(=O)c1ccc([N+](=O)[O-])cc1)NCCc1ccccc1	-19%
CCOCCCN(Cc1ccco1)S(=O)(=O)c1csc(C(N)=O)c1	13%
Nn1c(SCC(=O)N2CCCC2=O)nnc1-c1cccs1	-7%

# The final two compounds of the section above open the next one.
mol	VDR inh
CCOCCCN(Cc1ccco1)S(=O)(=O)c1csc(C(N)=O)c1	13%
Nn1c(SCC(=O)N2CCCC2=O)nnc1-c1cccs1	-7%
Cc1nc(C)c(-c2csc(NCCc3ccccc3)n2)s1	4%
Cc1cccc(C(C)C)c1NC(=O)c1c(-c2ccccc2)noc1C	-11%
Cc1ccc(Cn2c(CCNC(=O)C(C)C)nc3ccccc32)cc1	7%
O=C1CC(N2CCN(Cc3ccc(Cl)cc3)CC2)C(=O)N1CCc1ccccc1 (centres undefined)	-1%
CC(NC(=O)COC(=O)CCC(=O)c1ccc(F)cc1)c1ccccc1 (centres undefined)	10%
O=C(CN1CCCCC1)NN(Cc1ccccc1)c1ccccc1	5%
Cc1nnc(SCC(=O)NC(=O)NC(C)C)s1	-10%
CN(C)c1ccc(NS(=O)(=O)c2ccc(Cl)cc2)cc1	-14%
COc1ccc(C2CC(c3c(-c4ccccc4)c4cc(Cl)ccc4[nH]c3=O)=NN2S(C)(=O)=O)cc1OC (centres undefined)	4%
CC(=O)Nc1ccc(NC(=O)COC(=O)c2cc([N+](=O)[O-])ccc2N2CCOCC2)cc1	-28%
CCN(CC(=O)NCc1cccs1)S(=O)(=O)c1cccc(Br)c1	-3%
Cc1cccc(-c2ccc(NC(=O)C3CCN(CC4CC4)CC3)cc2)c1	3%
O=C(Oc1ccc(N(Cc2cccs2)C2=NS(=O)(=O)c3ccccc32)cc1)c1ccco1	9%
CCOC(=O)Cc1csc(NC(=O)c2sc3nc4c(C)cc(C)cc4cc3c2N)n1	16%
COCCNC(=O)C(OC(=O)c1cc2oc(C)cc2n1C)C(C)C (centres undefined)	4%
N#Cc1ccccc1OCC(=O)N1CCN(c2ccccc2)CC1	9%
O=C(NCCNc1ccc([N+](=O)[O-])cc1)c1ccccc1Br	10%
C[C@@H](O)CCC[C@H](O)/C=C/[C@@H]1[C@@H](C/C=C\CCCC(=O)O)[C@@H](O)C[C@H]1O	3%
Cc1ccc(NS(=O)(=O)c2cn(C)c(=O)n(C)c2=O)c(C)c1	-4%
O=C(Nc1ccc2c(c1)OCCO2)C1CCN(S(=O)(=O)c2ccc3c(c2)OCCO3)CC1	10%
CCOCC(O)COc1ccc(NC(=O)CC[S+](C)C)cc1 (centres undefined)	-5%
O=C(NCc1cccs1)c1nn2cccnc2c1Cl	11%
O=C(COC(=O)c1nc(Cl)c(Cl)c(Cl)c1Cl)NCc1ccccc1	-14%
O=C(Cc1ncon1)Nc1ccc(F)c(F)c1F	2%
CC1(C)CC(=O)C=C(c2ccc(F)nc2)C1	-14%
Cn1cc(S(=O)(=O)NCCc2ccccc2)c(=O)n(C)c1=O	-7%
COc1ccc(NC(=O)CN2CCCCC2)c([N+](=O)[O-])c1	2%
CC(NC(=O)c1cc2cc(F)ccc2[nH]1)c1ccccc1 (centres undefined)	-11%
O=C(Cn1c(=O)c2sccc2n(Cc2ccc([N+](=O)[O-])cc2)c1=O)NCCc1ccccc1	-6%
CCOC(=O)C1C(=O)NC(N2CCOCC2)=NC1c1ccco1 (centres undefined)	4%

# The list continues.
mol | VDR inh
O=C(C1=C(O)C(=O)N(CC2CCCO2)C1c1ccccc1F)c1ccco1 (centres undefined) | -8%
CCCCNC(=O)CCCN1C(=O)CCn2nc(-c3cccn3C)cc21 | -3%
CC(=O)/C(=N\Nc1ccccc1)Oc1ccc(Br)cc1 | -15%
O=C(c1ccc(=O)[nH]c1)N1CCN(S(=O)(=O)c2ccc3ccccc3c2)CC1 | -6%
COc1cccc2c1cc1c(=O)n(CC(=O)NCc3ccccn3)nc(C)n12 | 8%
COC(=O)c1cn(NC(=O)Cc2ccccc2Br)c(=O)c2ccccc12 | 1%
CCOC(=O)c1c(C)cc(C)[nH]c1=O | 16%
CCCSCCCNC(=O)c1ccc(C)c(NC(=O)C2=C(C)OCCS2)c1 | -11%
CC(=O)Nc1c(C)nn(-c2ccccc2)c1N1CCC(C(=O)Nc2ccc(F)cc2Cl)CC1 | 9%
CC1(C)CC(=O)C=C(NCCN2CCN(C(=O)Nc3ccccc3)CC2)C1 | 17%
COCCNC(=O)/C(C#N)=C/c1c(N2CCN(c3cccc(Cl)c3)CC2)nc2c(C)cccn2c1=O | -16%
N#Cc1cccc(NC(=O)N2CC[C@@]3(CCCN(C(=O)c4ccncc4)C3)C2)c1 | 9%
COc1ccccc1OCC(=O)Nc1c(C(=O)c2ccc(F)cc2)oc2ccccc12 | 20%
COc1cc2ccccc2cc1C(=O)N1CC(C)CC(C)C1 (centres undefined) | 5%
C=CC[C@H](CC(=O)N[C@H](CO)Cc1ccccc1)C(=O)N[C@H](COC(=O)[C@@H](CC=C)Cc1ccc(F)cc1)Cc1c[nH]c2ccccc12 | 4%
CN(C(=O)COC(=O)COc1ccc2c(c1)CCC2)c1c(N)n(Cc2ccccc2)c(=O)[nH]c1=O | -10%
CCCc1nc2oc3c(NCc4ccccn4)ncnc3c2c2c1COC(C)(C)C2 | -9%
COc1cc(CO)cc(Br)c1OCC(=O)O | -17%
O=C(COC(=O)c1ccccc1O)NCC1COc2ccccc2O1 (centres undefined) | -16%
Cc1cc(C)cc(C(=O)N2CCN=C2SCc2ccc([N+](=O)[O-])cc2)c1 | -21%
CCOc1ccc(/C=N/NC(=O)c2ccoc2C)cc1OC | 3%
CC(=O)Nc1ccc(S(=O)(=O)Nc2ccccc2C(=O)N2CCCCCC2)cc1 | -11%
CCc1ccc(NC(=O)NCC2CCN(c3ccc(OC)cc3)C2)cc1 (centres undefined) | 2%
CCNC(=O)OCC12CC3CC(CC(C3)C1)C2 | 4%
CC[C@@H](C)[C@H](NC(=O)Cc1c(C)c2c(cc(C)c3c(C)coc32)oc1=O)C(=O)O | 7%

# Later entries
mol | VDR inh
CCc1sc2nc(SCC(=O)Nc3cc(C)on3)n(-c3cccc(OC)c3)c(=O)c2c1C | -9%
COC(=O)C1=C(C)N(c2ccc(OC)c(OC)c2)C(=O)C1 | -1%
O=C(CSc1nc2c(cnn2-c2ccc(F)cc2)c(=O)[nH]1)N1CCCc2ccccc21 | 9%
COc1cc(/C=C/c2onc(C)c2[N+](=O)[O-])cc(OC)c1OC | -4%
COC(=O)c1c(C)sc(-c2c(-c3cccc(Cl)c3)[nH]c3c2c(=O)[nH]c(=O)n3C)c1O | 2%
Cc1ccc(S(=O)(=O)N2CCn3cccc3C2C)cc1 (centres undefined) | 1%
CCCCN(C(=O)CN1C(=O)C2CCCCC2C1=O)c1c(N)n(CCCC)c(=O)[nH]c1=O (centres undefined) | -16%
N#C/C(=N\Nc1cccc(Cl)c1)C(=O)c1ccccc1 | -16%
CC(C)CN(CC(C)C)C(=O)CN1C(=O)NC2(CCCc3ccccc32)C1=O (centres undefined) | 0%
CC(C)c1ccc(NC(=O)CCNC(=O)N2CC(=O)Nc3ccccc32)cc1 | 5%
Fc1ccccc1/C=N/Nc1nc(N2CCCCC2)nc(N2CCCCC2)n1 | -6%
COc1ccc(Nc2cc(C)c3c(O)cccc3n2)cc1 | ?
CCOC(=O)NC(=S)Nc1cccc(NC(=S)NC(=O)OCC)c1 | 0%
Cc1ccc(/C=N/n2c(C)nc3ccccc3c2=O)o1 | -13%
N#CCC(=N)N1CCN(c2ccc(F)cc2)CC1 | -7%
O=C(NCC1CCCO1)c1ccc(-c2ccccc2Cl)o1 (centres undefined) | -7%
CCOc1ccccc1NC(=O)C(=O)/C=C(\O)c1cc(OC)ccc1OC | ?
CC(=O)N1C(C)c2ccccc2C(C)(C)CC12CCCCC2 (centres undefined) | 7%
Cc1nc(N2CCCCC2)sc1C(=O)c1cccc([N+](=O)[O-])c1 | -24%
Cc1ccc(CNC(=O)Cn2cnc(C(=O)Nc3ccc(C)c(C)c3)n2)o1 | -7%
CC(=O)Nc1ccccc1-c1ccc(C)o1 | -18%
OC(CNCc1ccc(F)cc1)(c1ccccc1)c1ccc(F)cc1 (centres undefined) | -9%
Cc1ccccc1/C=C\c1nc(O)c([N+](=O)[O-])c(=O)[nH]1 | ?
Cc1cccc(N/C=C/C(=O)c2ccc(Cl)cc2)c1 | 16%
COC(=O)CCCNC(=O)CCc1nnc(-c2ccc(-c3ccccc3)cc2)o1 | 6%

# More structures follow:
mol | VDR inh
Cc1c(C(=O)N(C)C)sc(NC(=O)c2cc([N+](=O)[O-])cc([N+](=O)[O-])c2)c1C#N | -20%
Cc1ccccc1-c1nnn(CC(=O)NC(=O)NC2CCCC2)n1 | -10%
Cc1noc(C)c1-c1cc(N(C)C)ncn1 | 1%
Cc1ccccc1-n1c(SCC(=O)NCc2cccs2)nnc1-c1ccncc1 | 5%
Cc1cc2oc(=O)cc(CN3CCN(S(=O)(=O)c4ccc5c(c4)OCCO5)CC3)c2cc1C | -6%
Cc1cc(=O)oc2cc(NC(=O)CCCC(=O)O)ccc12 | 0%
CS(=O)(=O)N1CCN(c2ccccc2NC(=S)NC(=O)c2cccs2)CC1 | 18%
Nc1ccc2c(c1)C(=O)N(CCCCCC(=O)O)C2 | -14%
C/C(Cl)=C/Cn1c(SCc2ccc(Cl)cc2)nc2c1c(=O)[nH]c(=O)n2C | ?
Cc1ccc(Oc2ncccc2NC(=O)CC(CC(=O)O)c2ccccc2)c2c1CCC2 (centres undefined) | 8%
COc1ccc(N2CCN(C(=O)CCS(=O)(=O)c3cc4c(cc3Cl)NC(=O)CO4)CC2)cc1 | -6%
COc1ncccc1C(=O)NC1CCCc2c1cnn2-c1ccc(C)c(C)c1 (centres undefined) | -23%
CCOC(=O)N1CCN(CC(=O)Nc2cc(C)nn2-c2nc3ccccc3s2)CC1 | 2%
COCCSc1ccccc1C(=O)Nc1ccc(Cl)cn1 | -14%
COc1ccc(NC(=O)Cc2coc3cc(C)ccc23)cc1S(=O)(=O)N1CCOCC1 | -7%
O=C(COc1ccccc1)NC(=S)Nc1ccc(Br)cn1 | -4%
CC(C)(CSc1nncn1/N=C/c1ccco1)NS(=O)(=O)c1ccc(Cl)cc1 | -7%

# 4 entries from above, field by field:
COCCSc1ccccc1C(=O)Nc1ccc(Cl)cn1
  VDR inh = -14%
Cc1ccccc1-n1c(SCC(=O)NCc2cccs2)nnc1-c1ccncc1
  VDR inh = 5%
CS(=O)(=O)N1CCN(c2ccccc2NC(=S)NC(=O)c2cccs2)CC1
  VDR inh = 18%
COc1ncccc1C(=O)NC1CCCc2c1cnn2-c1ccc(C)c(C)c1 (centres undefined)
  VDR inh = -23%

# Some of the entries so far, with values ahead of the structure:
VDR inh	compound
1%	COC(=O)c1cn(NC(=O)Cc2ccccc2Br)c(=O)c2ccccc12
16%	CCOC(=O)c1c(C)cc(C)[nH]c1=O
